RanGTP-Impb inh: inhibitors of RanGTP-importin-beta interaction, primary screen, biochemical, FRET, CFP-Ran, YFP-importin-beta, homogeneous; cell-free CFP-Ran/YFP-importin-beta FRET ratio; inhibition, % (concentration not given with the values); actives 1.1% (n = 300,000);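 active = most replicates above 15%; inconclusive = exactly half above 15%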;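 note: 0% = DMSO wells and 100% = Ran loaded with GDP instead of GTP; wells of about 40 µL received 100 nL stock; the first replicate is given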
Calb FLC: affects C. albicans growth with fluconazole. growth inhibition, % (concentration not given with the values). actives 0.57% (n = 300,000). AID 1979. C. albicans CaCi-2 (fluconazole-resistant clinical isolate) + fluconazole, Alamar Blue growth, 48 h;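 active = most replicates above 75%; inconclusive = exactly half above 75%; inactive = most below 75%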;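 note: all wells also contain fluconazole at 8 µg/ml as a sub-toxic cotreatment; 0% = median of DMSO wells and 100% = median of geldanamycin control wells; wells of about 8 µL received 7.5 nL stock; the first replicate is given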
LANA-H2A inh: blocks KSHV LANA binding to histone H2A/H2B | inhibition, % (test concentration not listed) | Q9QR71 | cell-free LANA-H2A/H2B peptide, fluorescence polarization | actives 0.6% (n = 320,000); in the data active = inhibition mostly above about 10%, no sharp cut-off; inactive = mostly below about 6.7%;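 note: stock transfer was 7.5 nL into about 10 µL; 0% = median of vehicle wells and 100% = median of positive control wells; one replicate is shown; the record names a cut of 25% in any replicate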
Target sequence (Q9QR71 whole entry, looked up): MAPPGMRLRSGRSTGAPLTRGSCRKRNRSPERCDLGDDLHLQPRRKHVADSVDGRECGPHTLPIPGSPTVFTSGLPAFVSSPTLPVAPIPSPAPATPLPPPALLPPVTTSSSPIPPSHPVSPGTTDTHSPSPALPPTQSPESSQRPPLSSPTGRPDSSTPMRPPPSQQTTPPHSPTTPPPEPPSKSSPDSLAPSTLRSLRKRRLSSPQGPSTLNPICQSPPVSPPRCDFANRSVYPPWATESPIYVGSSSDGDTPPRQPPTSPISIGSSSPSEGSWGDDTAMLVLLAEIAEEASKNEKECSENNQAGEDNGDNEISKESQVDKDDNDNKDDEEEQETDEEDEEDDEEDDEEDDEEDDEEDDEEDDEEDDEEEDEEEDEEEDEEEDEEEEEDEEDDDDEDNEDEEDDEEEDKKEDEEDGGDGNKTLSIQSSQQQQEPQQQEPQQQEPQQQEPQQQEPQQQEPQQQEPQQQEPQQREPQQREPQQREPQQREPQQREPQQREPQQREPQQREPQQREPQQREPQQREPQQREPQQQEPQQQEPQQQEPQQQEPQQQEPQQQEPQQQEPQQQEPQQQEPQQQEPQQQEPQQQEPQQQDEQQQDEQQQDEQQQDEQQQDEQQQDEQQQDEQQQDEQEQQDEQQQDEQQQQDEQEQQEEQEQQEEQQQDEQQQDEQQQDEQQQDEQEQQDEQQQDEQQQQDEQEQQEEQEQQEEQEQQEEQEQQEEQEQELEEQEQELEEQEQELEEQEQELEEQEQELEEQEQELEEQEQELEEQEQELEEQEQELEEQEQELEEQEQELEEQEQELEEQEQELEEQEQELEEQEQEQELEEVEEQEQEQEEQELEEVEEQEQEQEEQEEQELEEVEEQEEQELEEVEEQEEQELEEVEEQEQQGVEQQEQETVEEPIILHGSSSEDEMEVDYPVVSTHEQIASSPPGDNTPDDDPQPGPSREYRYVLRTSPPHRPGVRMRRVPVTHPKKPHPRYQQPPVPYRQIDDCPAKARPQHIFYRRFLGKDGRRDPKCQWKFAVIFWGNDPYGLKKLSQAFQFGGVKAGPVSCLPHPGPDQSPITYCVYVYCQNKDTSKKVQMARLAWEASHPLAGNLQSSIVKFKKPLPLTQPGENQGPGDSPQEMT
T cruzi repl: blocks replication of Trypanosoma cruzi; actives 1.4% (n = 300,000); AID 1885; T. cruzi beta-gal in NIH3T3, luminescence, 90 h; inhibition, % (no concentration beside the values);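 active = mean inhibition across valid replicates above about 55%, limit read from the data; inconclusive = mean below that limit but half or more replicates reach it; inactive = mean below it, under half of replicates reach it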;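 note: signal also drops with host cell toxicity which is not excluded here; 0% = plate median of DMSO wells and 100% = zero luminescence signal; higher percent means less beta-gal luminescence so fewer parasites; stock transfer was 50 nL into about 50 µL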
Bfl-1 A1 inh: inhibitors of the anti-apoptotic protein A1, read as caspase activation. MEF A1-2A-BIM cells, Caspase-Glo 3/7 luminescence, 3 h; percent of clofoctol response, vehicle zero. caspase activation, % (test concentration not listed). actives 0.066% (n = 330,000). AID 2462;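 active = over half of replicate activation scores above 10%, or exactly half above 10 with the replicate mean above 10; inconclusive = replicate mean below 10 yet half the replicates above 10; inactive = over half of replicates below 10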;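 note: wells of about 30 µL received 50 nL stock; many hits fall short of the cut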
Vif TR-FRET: HIV-1 Vif–A3G interaction blockers – biochemical, TR-FRET, GST-Vif 1-94, biotin-A3G peptide, dose response retest, primary screen (AID 1117319); TR-FRET GST-Vif / biotin-A3G peptide binding; higher % means a stronger effect; test concentration not given here; strong numbers were not always called active; inhibition, %; hits with a dose series show IC50 in µM; actives 0.57% (n = 260,000);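 active = above the screen mean plus three standard deviations and confirmed in dose response; inconclusive = results disagree or hit not tested in dose response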;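 note: Vif residues 1-94 fused to GST binding biotinylated APOBEC3G peptide 110-148; 0% = full assay without inhibitor and 100% = GST in place of GST-Vif; retest series ran down from 100 µM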
Beta cell apopt: beta cell apoptosis inhibition. INS-1E cytokine-induced death, ATP luminescence, 48 h; percent of positive-control rescue, neutral wells zero. actives 0.8% (n = 300,000). AID 435005. protection from apoptosis, % (test concentration not listed);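 active = all replicates at 75% or more, or half of them and the mean; inconclusive = half reach 75% but not the mean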;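 note: 0% = cytokine-treated negative control wells and 100% = positive control rescue; higher means more ATP so stronger rescue from cytokine killing; wells of about 40 µL received 100 nL stock; the first replicate is given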
MLL AF4-AF9 inh: blocks AF4 peptide binding to human AF9; P42568; AlphaScreen, biotin-AF4 peptide binding to FLAG-AF9; inhibition, % at 10 µM; actives 0.47% (n = 350,000);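 active = every replicate reaching a set inhibition limit, whatever the replicate mean, cut at about 25% in these data; inconclusive = mean inhibition reaches that limit but some replicates miss it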;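 note: 0% = plate neutral control median and 100% = total signal loss; the record names both 10 and 1 µM as test concentration; the first replicate is given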
Active calls of the source: *; ? = inconclusive; . = not tested or not shown; & = joins results of further samples; ! = not confirmed by another sample.

compound	RanGTP-Impb inh	Calb FLC	LANA-H2A inh	T cruzi repl	Bfl-1 A1 inh	Vif TR-FRET	Beta cell apopt	MLL AF4-AF9 inh
Cc1ccccc1-c1nc(CS(=O)CC(=O)NCCCN(C)c2ccccc2)c(C)o1 (stereo not drawn)	-1.4	-11	-4.3	-2	0.5	12%&-9%	1	.
Cc1ccc(NC(=O)c2cccc(OCc3c(C)noc3C)c2)cc1	1.4	3	0.0	-6	-1.6	-2%	7	.
Cc1ccc(/C=C/C(=O)N(Cc2cccs2)C2CCS(=O)(=O)C2)cc1 (stereo not drawn)	2.6	-7	1.3	-5	-0.3	-10%	-1	3.0
CCOC(=O)C1CCN(C(=O)C(=O)Nc2ccc3nc4n(c(=O)c3c2)CCCCC4)CC1	3.2	3	5.7	-10	-0.3	.	-1	-21
Cc1ccc(CC(=O)NCCS(=O)c2ccc(C)cc2)cc1 (stereo not drawn)	?	12	4.4	-4	0.1	-6%	-4	0.0
CN(C)C(=S)NC(=NCc1ccc([N+](=O)[O-])cc1)c1ccccc1	1.2	20	-2.7	-8	0.3	.	4	-12
O=C(Nc1cccc(Cl)c1N1CCOCC1)c1ccc(Br)o1	0.0	-2	-2.7	11	-1.9	2%	-1	-0.3
O=c1c2c([nH]n1-c1ccccc1)CCSC2	-2.6	-19	0.1	-5	0.8	-4%	-2	2.6
CCOC(=O)C1CCN(Cc2cccc(OC)c2)CC1	5.4	2	-0.1	-12	-0.8	7%	-2	-52
COc1cccc(CN2C(=O)C3(C(C#N)=C(N)OC4=C3C(=O)CCC4)c3ccccc32)c1 (stereo not drawn)	-4.0	91*	1.9	-29	0.9	0%	.	4.1
CCc1ccc(/C=C2\Oc3cc(OC(=O)N4CCOCC4)ccc3C2=O)cc1	1.6	-16	-2.1	20	-0.3	11%	-8	12
Cc1ccc(C(O)c2ccc(-n3ccnc3)cc2)cc1 (stereo not drawn)	-0.8	3	-4.7	53	-0.3	.	-9	-0.6
O=C1CCC([N+](=O)[O-])C(c2cc(Br)ccc2F)N1 (stereo not drawn)	0.3	-3	-0.2	-15	-0.7	-3%	-1	0.8
N#Cc1ccc(COC(=O)CCc2c[nH]c3ccccc23)cc1	0.1	4	-1.2	0	1.7	8%	-5	3.6
CC(Sc1nnc(COc2ccc([N+](=O)[O-])cc2)n1C)C(=O)O (stereo not drawn)	?	2	-4.6	-16	0.1	-1%	-20	-6.7
O=C(c1ccco1)[C@@H]1[C@@H]2C(=O)N(c3ccc(F)cc3)C(=O)[C@@H]2[C@H]2C=Cc3ccccc3N21	.	.	-485	.	0.1	19%	4	7.4
O=C(NCCCN1CCOCC1)C1CCN(S(=O)(=O)c2c(Cl)cccc2Cl)CC1	-0.4	0	1.5	-7	-0.3	-5%	4	-1.4
O=C(COC(=O)C(CO)NS(=O)(=O)c1ccc(Br)cc1)Nc1ccc2c(c1)OCCO2 (stereo not drawn)	.	.	-2.6	.	-0.6	.	0	-6.1
C[C@H](CO)N1C[C@H](C)[C@@H](CN(C)Cc2ccc(Oc3ccccc3)cc2)Oc2c(NC(=O)c3ccncc3)cccc2C1=O	.	.	1.3	.	0.0	.	-2	25*!
COc1cc2nc(CN3CCN(S(=O)(=O)c4ccc(Cl)cc4)CC3)[nH]c(=O)c2cc1OC	-1.7	5	2.4	18	0.1	-7%	-12	-0.8
Cc1ncc(C[n+]2csc(CCOC(=O)C34CC5CC(CC(C5)C3)C4)c2C)c(N)n1	-1.4	-10	0.2	29	1.9	?	-7	-0.8
CN1C(=O)NC(c2ccc(O)cc2)C(C(=O)c2cccs2)C1(O)C(F)(F)F (stereo not drawn)	-3.8	-9	-1.1	2	0.0	11%	2	-1.6
CCOc1ccccc1NC(=O)c1ccc2nc[nH]c2c1	2.7	-16	3.4	-3	0.6	.	-8	-2.7
CCN1CCN(C(=O)c2cnn3c(C(F)F)cc(-c4ccc(C)cc4)nc23)CC1	2.7	-10	-3.1	12	0.6	3%	-5	.
Cc1cc(C)nc(N/N=C/c2ccccc2Cl)n1	-4.3	-11	-0.3	-11	-5.8	.	3	-0.3
Cc1nc2ccccc2cc1C(=O)Nc1ccccc1Cl	-0.9	-6	-2.0	-9	1.4	-10%	-4	-4.0
CC1CCC(NS(=O)(=O)c2ccc3c(c2)n(C)c(=O)c(=O)n3C)CC1 (stereo not drawn)	0.4	-7	-0.8	-23	-0.1	0%	-3	.
CN(CC(=O)Nc1ccc(Cl)c(C(F)(F)F)c1)C(=O)C1CCCO1 (stereo not drawn)	.	.	3.3	.	-0.1	-17%	-2	1.2
Cc1cc(C)c2[nH]c(=O)c(CN(Cc3cccnc3)C(=S)NCCCN(C)C)cc2c1	0.4	-4	0.1	13	-0.4	-10%	-18	-3.1
O=C(NCC1(O)CCCCC1)C1CCC(=O)N(Cc2ccccc2F)C1 (stereo not drawn)	-2.2	-1	1.7	-8	0.5	.	-5	-2.0
Clc1ccc(OCc2cn3cccnc3n2)c2ncccc12	4.1	8	.	-5	.	2%	.	.
O=C(Nc1cccc(C(=O)N2CCOCC2)c1)c1cccnc1	-1.8	-15	3.7	0	-0.8	0%	2	.
COc1cc(NC(=O)c2c(F)cccc2F)nc(OC)n1	-1.7	3	-1.9	0	-5.6	3%	-1	-36
C=CCN1C(=O)/C(=C2/Sc3ccccc3N2CCCS(=O)(=O)O)SC1=S	45*	3	-5.7	-2	1.2	19%	-5	.
CC(=O)N(CCc1cccc(C)c1)Cc1cc2ccc(C)cc2[nH]c1=O	-2.8	8	-0.8	12	-0.4	.	-4	-1.3
Cc1ccc(NC(=O)NCc2ccc3c(c2)OCO3)cc1C	?	-20	-0.3	8	0.2	4%	-10	-2.1
CC(=O)N1CCN(C(=S)NC(=O)c2ccc(S(=O)(=O)N3CCOCC3)cc2)CC1	1.0	5	-2.1	-6	1.1	0%	2	.
O=C(Nc1cc(Cl)ccc1N1CCOCC1)c1ccc(F)c(S(=O)(=O)N2CCOCC2)c1	.	.	3.6	.	0.5	.	3	2.8
COc1ccccc1NS(=O)(=O)c1cccc(NS(=O)(=O)c2cc(C(=O)O)ccc2OC)c1	.	.	2.3	.	0.1	-3%	-2	-3.1
N#Cc1cccc(CN2CCCN(Cc3ccc(F)cc3)S2(=O)=O)c1	1.0	14	3.7	-5	-0.1	7%	-2	1.9
COC(=O)[C@H]1C[C@H](C(=O)O)[C@@H](C)C1(C)C	.	.	5.0	.	-0.9	.	-1	1.3
CC(C)(C)n1cnc2cc(NS(=O)(=O)c3ccc(Br)cc3)ccc21	-2.2	8	-3.0	13	-0.2	1%&0%	-3	.
Cc1ccc(-c2csc(N3N=C(c4ccccc4)/C(=C\c4ccc(N(C)C)cc4)C3=O)n2)cc1	-2.2	55	0.0	4	0.4	-3%	0	.
CCn1cc([N+](=O)[O-])c(C(=O)Nc2nc3ccc(OC)cc3s2)n1	-3.1	-9	-5.8	-11	-0.2	10%	2	-1.6
O=S1(=O)CCC(S(=O)(=O)N2CCCCCC2)C1 (stereo not drawn)	-1.2	-9	2.3	0	-1.8	24%	-6	.
O=C(N/N=C/CCc1ccccc1)c1ccc(CN2c3cccc4cccc(c34)S2(=O)=O)cc1	-0.4	35	-3.1	-13	0.6	.	5	.
Cc1ccc(CNCc2ccccc2Cl)cc1	?	-17	-0.8	-13	-0.4	3%	-1	.
CCCCCCNc1nc(-c2ccc(OC)cc2)c(CCC(=O)O)s1	-0.7	16	-4.3	-8	-0.5	12%	-8	-0.9
CC(C)CN1CCN(C(=O)CCc2nnc(Cc3c[nH]c4ccccc34)o2)[C@@H](C)C1=O	0.1	20	0.4	-12	0.6	-8%	-5	-4.4
COc1nc(C)ccc1-c1noc(-c2cccnc2)n1	0.3	5	1.0	0	-0.7	.	-5	-3.8
O=C(CN1C(=O)NC(Cc2ccccc2)C1=O)Nc1ccccc1F (stereo not drawn)	.	.	-0.8	.	0.2	-7%	-1	-1.3
CCOC(=O)C1=NOC(CN(c2ccccc2)S(=O)(=O)c2ccc(Cl)cc2)C1 (stereo not drawn)	-0.5	0	0.8	-2	0.5	1%	-2	-4.6
COc1ccc(S(=O)(=O)N2CCOCC2)cc1NC(=O)CC(C)c1ccccc1 (stereo not drawn)	.	.	-4.8	.	0.2	.	3	0.4
CCOC(=O)c1c(S(=O)(=O)N2CCN(Cc3ccccc3)CC2)c(C)n(C)c1C	7.5	-2	-6.9	12	0.5	6%	.	3.9
CCn1c(=O)cc(OCC(=O)Nc2cc(C)ccn2)c2ccccc21	0.6	-44	-3.0	-2	0.1	27%	-18	.
Cc1ccc2c(c1)CCCN2C(=O)C1CCCO1 (stereo not drawn)	1.0	11	2.3	-16	-0.4	0%	-6	-23
O=C(CN1C(=O)C2CCCCC2C1=O)Nc1ccccc1N1CCCC1 (stereo not drawn)	5.5	-6	2.5	3	-1.3	4%	-4	0.8
O=C1NCN(c2ccccc2)C12CCN(CCCC(c1ccc(F)cc1)c1ccc(F)cc1)CC2	0.2	.	-5.2	44	0.4	?	1	18
CCOc1ccc(C2CC(c3ccc(F)cc3)Nc3nc(N)nn32)cc1 (stereo not drawn)	3.6	1	-0.4	12	0.6	-3%	1	-4.3
CCN(C[C@H]1N[C@@](CC)(C(=O)OC)[C@H]2C(=O)N(Cc3ccccc3)C(=O)[C@@H]12)C(=O)c1ccc(F)cc1	.	.	-100	.	?	3%	-11	-1.2
O=C(COc1ccccc1)NC1CCN(Cc2ccccc2)CC1	-0.6	-1	-3.6	14	0.1	2%	-4	.
Cc1[nH]n(-c2ccccc2)c(=O)c1S(=O)(=O)c1ccccc1	2.1	14	1.9	8	0.0	22%	-3	.
